RE007 growth inh = less growth of the S. pombe RE007 Vpr strain. S. pombe RE007 Vpr strain, BacTiter-Glo ATP luminescence, 24 h; control for the full effect not named in the record. Potency, µM (series often up to 92.2 µM), for inactives: at the top dose activity change, negative = less growth. 0.21% of 360,000 active. AID 651644; active = well fitted falling curve with a large enough effect; inconclusive = small, poorly fitted or top-dose-only effect; inactive = no such curve, though single readings can be large or run the other way;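 further: on the % scale 0 is the no-effect control and ±100 the full control effect; nearly all actives have a fitted effect of over 50% in size; the assay follows cell death caused by Vpr and the record does not say whether a fall means rescue or toxicity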
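Fission yeast RE007 carrying one integrated HIV-1 vpr copy, seeded at OD 0.01 in PMG+AL medium with 23 nL pinned compound. Grown 24 h at 30 degrees; viability read by BacTiter-Glo luminescence after 5 min.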
Cruzain inh noDet = inhibitors of Trypanosoma cruzi cruzain without detergent | P25779 | purified cruzain, Z-FR-AMC fluorescence, no detergent | Potency, µM, for inactives: max response, negative = inhibition, actives largely listed as inhibitors | 2.3% of 200,000 active | AID 1476; active means well fitted curve in the direction sought with a large enough effect; inconclusive means small, poorly fitted or top-dose-only effect, or another doubt; inactive means no such curve, though single readings can be large; an effect the other way counts as inactive or inconclusive;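 further: plate controls were enzyme without inhibitor for no effect and buffer without enzyme for full effect; nearly all actives have a fitted effect of over 40% in size; top concentration of the series not given in the record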
Target sequence (P25779 123-467 limits assumed): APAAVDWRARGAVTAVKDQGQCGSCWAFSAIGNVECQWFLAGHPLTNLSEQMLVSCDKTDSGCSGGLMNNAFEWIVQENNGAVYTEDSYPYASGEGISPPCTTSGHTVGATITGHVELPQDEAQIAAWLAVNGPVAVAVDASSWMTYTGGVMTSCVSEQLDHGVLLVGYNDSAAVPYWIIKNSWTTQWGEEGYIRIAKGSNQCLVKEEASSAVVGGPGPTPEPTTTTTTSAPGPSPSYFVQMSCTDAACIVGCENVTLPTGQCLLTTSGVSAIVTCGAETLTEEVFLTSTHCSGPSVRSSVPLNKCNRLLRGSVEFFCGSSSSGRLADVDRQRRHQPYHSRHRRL
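Detergent-free condition (0.00005% Triton X-100) in acetate buffer pH 5.5 with DTT. 1.5 nM enzyme and compound were pre-mixed 15 min, then 2 uM Z-FR-AMC substrate added; reaction progress from fluorescence change between first and third reads (60 s).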
Lassa entry inh = inhibitors of Lassa virus binding or cell entry; 1.2% of 300,000 active; Potency, µM (doses to about 37.9 µM), for inactives: top-dose activity change, negative = inhibition, most hits filed as inhibitors; AID 540256; Lassa virus pseudotype entry inhibition, cell reporter; control for the full effect not named in the record; active means well fitted inhibition curve with a large enough effect; inconclusive means small, poorly fitted or top-dose-only effect, or effect the other way; inactive means flat fitted curve, though single readings scatter; tested in HEK293 cells; further: on the % scale 0 is the no-effect control and ±100 the full control effect; nearly all actives have a fitted effect of over 50% in size; luciferase read-out
MARV entry inh = inhibitors of Marburg virus binding or cell entry; Potency, µM (doses to about 37.8 µM), inactives show top-dose activity change, negative = inhibition, actives largely listed as inhibitors; AID 540276; 1.8% of 300,000 active; Marburg virus pseudotyped entry inhibition, cell reporter; control for the full effect not named in the record; about a third of the inactives were read at about 46 µM; active = well fitted inhibition curve with a large enough effect; inconclusive = small, poorly fitted or top-dose-only effect, or effect the other way; inactive = flat fitted curve, though single readings scatter; tested in HEK293 cells; about a fifth of its hits are not listed in these tables; further: on the % scale 0 is the no-effect control and ±100 the full control effect; luciferase read-out
SARS PLP yeast = blocks SARS-CoV papain-like protease in a yeast assay; 0.19% of 330,000 active; Potency, µM (doses to about 32.9 µM), without a hit: at the top dose activity, positive = growth rescue; S. cerevisiae expressing SARS-CoV PLpro, growth rescue; control for the full effect not named in the record; further: 0% is about no effect; nearly all actives have a fitted effect of over 55% in size; growth read by luminescence after 48 h
Cruzain Triton = inhibitors of Trypanosoma cruzi cruzain with detergent; P25779; purified cruzain, Z-FR-AMC fluorescence, 0.01% Triton; Potency, µM, for inactives: max response, negative = inhibition, actives largely listed as inhibitors; 0.43% of 200,000 active; AID 1478; active means well fitted curve in the direction sought with a large enough effect; inconclusive means small, poorly fitted or top-dose-only effect, or another doubt; inactive means no such curve, though single readings can be large; an effect the other way counts as inactive or inconclusive;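 further: plate controls were neutral wells for no effect and buffer without enzyme for full effect; nearly all actives have a fitted effect of over 40% in size; top concentration of the series not given in the record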
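Compounds were screened in titration against cruzain (1.5 nM) with 0.01% Triton X-100 to counter colloidal aggregation. Activity was the AMC fluorescence increase over 60 s after adding 2 uM Z-FR-AMC at pH 5.5.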
NS1 inh = influenza NS1 inhibition; S. cerevisiae slowed by influenza A NS1, growth recovery by OD600; Potency, µM (doses to about 46.1 µM), for the others: at the top dose activity, positive = more growth; 0.4% of 270,000 active; further: actives are rising curves; nearly all actives have a fitted effect of over 50% in size
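Recovery from NS1-induced slow growth read by OD600 in budding yeast switched to galactose assay medium (pH 6.0, -URA) at 1:100 dilution. Compound 23 nl per well; the matching strain lacking NS1 serves as control.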
StopGo reporter = lowers the luciferase signal of an FMDV 2A StopGo reporter. Potency, µM (doses to about 57.9 µM), inactives show at the highest dose signal change, negative = less light. human cells with a luciferase reporter of 2A StopGo recoding; control for the full effect not named in the record. 1.2% of 410,000 active. AID 1159524; active = well fitted falling curve with a large enough effect; inconclusive = small, poorly fitted or top-dose-only effect; inactive = no such curve, though single readings can be large or run the other way; tested in HEK293T cells; further: on the % scale 0 is the no-effect control and ±100 the full control effect; nearly all actives have a fitted effect of over 45% in size; luciferase light after 4 h
An asterisk follows results filed as active; u = inconclusive; x = no result given; & = joins results of further samples; [ ] = dose if it differs, or a comment. Unless noted, the call rests on the fitted dose curve; in most records, active means well fitted rising curve with a large enough effect; inconclusive means small, poorly fitted or top-dose-only effect; inactive means no such curve, though single readings can be large or run the other way. Potency means the concentration at half of the fitted maximal effect. Compounds were not picked by outcome (roughly 4.7% active in at least one column).

smiles | NS1 inh | Lassa entry inh | MARV entry inh | StopGo reporter | Cruzain inh noDet | Cruzain Triton | SARS PLP yeast | RE007 growth inh
O=C1CCCCN1CCC(=O)N1CCCC(Nc2ccccc2)C1 (stereo unspecified) | 1% | x | x | 1% | x | x | 2% | 3%
Cc1ccc(S(=O)(=O)N(CC(O)CN2C(=O)NC(C)(C)C2=O)c2ccccc2)cc1 (stereo unspecified) | 4% | -4% | -10% | -3% | -3% | 1.0% | 5% | -2%
O=S(=O)(c1ccccc1)n1c(C(O)c2ccccn2)cc2ccccc21 (stereo unspecified) | 18% | u | 4% | 38%[activator] | 13% | -5.9% | 8% | -12%
Cc1onc(C(=O)Nc2ccc3c(c2)OCO3)c1[N+](=O)[O-] | 7% | x | x | 24% | x | x | -4% | -9%
COc1ccc(OC)c(S(=O)(=O)n2cnc3ccccc32)c1 | 8% | -25%[46.1 µM] | u | 13% | x | x | 7% | 10%
Cc1cccc(S(=O)(=O)C(C#N)c2nc3ccccc3nc2N2CC(C)OC(C)C2)c1 (stereo unspecified) | -16% | u | u | x | u | -23% | x | 8%
Fc1ccccc1NC(=S)N1CCN(C/C=C/c2ccccc2)CC1 | 8% | u | 5% | u | 8% | -0.8% | 9% | -1%
O=[N+]([O-])/C=C/c1cn(Cc2ccc(Cl)cc2)c2ccccc12 | -3% | u | u | 35µM* | -10% | -4.5% | -17% | 4%
CC(CC(=O)NC(C)c1ccc2c(c1)OCCO2)c1ccccc1 (stereo unspecified) | -7% | -24% | u | -5% | 9% | -0.2% | 25% | -5%
COCCn1c(SCC(=O)N(C(C)C)C(C)C)nnc1-c1cc2ccccc2cc1O | -6% | -5% | -1%&-1% | -13% | -1% | 2.4% | -4% | -7%
Cn1c(=O)c(-[n+]2ccccc2)c([O-])c2ccccc21 | 18% | 0% | 1% | -1% | 3% | 4.1% | u | -16%
O=C1CCC2(C(=O)O)Sc3ccccc3N12 (stereo unspecified) | 6% | -13% | 3% | -1% | -2% | 2.8% | 10% | -8%
CCC1CSC(Nc2ccc(C(=O)/C=C/c3ccc(Br)cc3)cc2)=N1 (stereo unspecified) | u | u | u | u | 25µM* | -11% | -54% | u
CCc1nnc(NC(=O)C2CC(=O)N(c3ccc4c(c3)OCCO4)C2)s1 (stereo unspecified) | -3% | 2% | -9% | 1% | 0% | -2.7% | -10% | -6%
O=C(COC(=O)c1ccccc1)Nc1ccc(Cl)cn1 | x | u | -1%[46.1 µM] | 14% | x | x | -2% | 0%
Cc1cc(=O)oc2c3c(cc(OCC(=O)Nc4ccc(CCO)cc4)c12)OC(C)(C)CC3 | -23% | x | x | -20% | x | x | 8% | 13%
Cc1ccc(NC(=O)c2ccc(NCC3CCCO3)c([N+](=O)[O-])c2)cc1Cl (stereo unspecified) | 2% | -13% | u | u | u | -2.8% | -2% | -10%
CC(NC(=O)c1ccccc1F)C(=O)O (stereo unspecified) | 4% | -1% | 10%[46.1 µM] | -4% | 5% | 5.5% | -1% | 5%
Cc1ccc(Cl)cc1NC(=O)Cn1c(=O)cc(C)c2c(C)nn(C)c21 | x | 0%[46.1 µM] | x | u | -10% | 1.6% | x | x
CC(C)COC(=O)N1CCN(S(=O)(=O)c2ccc3c(c2)CCC3)CC1 | x | u | 4% | -13% | x | x | 1% | 8%
Cc1csc2nc(COc3ccccc3NC(=O)c3ccccc3Cl)cc(=O)n12 | x | -3%[46.1 µM] | 7%[46.1 µM] | -23% | -8% | -1.0% | x | x
O=C(N/N=C/c1ccc([N+](=O)[O-])o1)c1ccncc1 | 0% | u | -23%[46.1 µM] | -5% | x | x | 3% | -21%
Cc1cc(NC(=O)CSCC(=O)Nc2cc(C(F)(F)F)ccc2N2CCCC2)no1 | x | 9% | -15% | 28µM* | x | x | -2% | 12%
Cc1ccc(OCC(=O)N/N=C/c2cccn2C)cc1 | 7% | -20% | 4% | 47%[activator] | -5% | -6.2% | 1% | 5%
OCCNc1nc(N2CCN(c3ccccc3)CC2)nc2ccccc12 | 0% | x | x | -11% | x | x | 8% | 0%
COC(=O)[C@H](Cc1ccccc1)NC(=O)NCCc1ccccc1F | 2% | x | x | -2% | x | x | -2% | 7%
Cc1ccccc1NC(=O)CN1C(=O)NC2(CCCCCCC2)C1=O | x | 4% | 0% | -11% | x | x | 1% | -12%
COc1ccc(N(C)S(=O)(=O)c2c(C)noc2C)c(OC)c1 | x | u | 1% | -6% | x | x | 3% | -3%
CC1CCCC(C)N1CCCNC(=O)c1ccc2nc(N3CCCCC3)sc2c1 (stereo unspecified) | -2% | x | x | 1% | x | x | 4% | -16%
Cc1ccc(CNc2ncccc2-c2nc(-c3ccc(Cl)cc3)no2)cc1 | x | 0%[46.1 µM] | 0%[46.1 µM] | 45%[activator] | 5% | -3.5% | x | x
O=C(Nc1ccc(OC(F)F)c(Cl)c1)[C@@H]1CCCN1C(=O)c1cccs1 | -3% | u | 2% | 7% | -9% | -4.1% | -30% | -8%
COc1ccc(NC(=O)NC2CCN(C(C)C)CC2)c(OC)c1 | 9% | -6% | 9% | -10% | -6% | 2.1% | 6% | 9%
CCOC(=O)c1[nH]c(=O)[nH]c1CNc1ccccc1C#N | 28% | u | -16% | -9% | x | x | 4% | 5%
CCNc1ccc([N+](=O)[O-])cc1 | 5% | -9%[46.1 µM] | -10%[46.1 µM] | 4% | x | x | 0% | -4%
Fc1cccc(CSc2ccc(-c3ccco3)nn2)c1 | 18% | 5% | 23% | 40%[activator] | -7% | -8.8% | -29% | -22%
COc1ccc(NC(=O)COC(=O)COc2ccc(Br)cc2)cc1 | x | 1%[46.1 µM] | 3%[46.1 µM] | -4% | x | x | 1% | -12%
Cc1ccccc1N(CC(=O)NCc1ccco1)C(=O)CCC(=O)Nc1nccs1 | 5% | -3% | 18%[46.1 µM] | -6% | x | x | 3% | 16%
O=C(CCC(=O)c1ccccc1)Nc1ccc(C(=O)O)cc1 | 14% | x | x | -5% | x | x | 6% | 22%
O=C(N/N=C/c1cccnc1)c1ccc([N+](=O)[O-])cc1 | 10% | 8% | 17% | 6% | -12% | -1.2% | -6% | 4%
COc1ccccc1N1CCN(C(=O)c2cccc(N3C(=O)C4C5C=CC(C5)C4C3=O)c2)CC1 (stereo unspecified) | 3% | -22%[46.1 µM] | -17%[46.1 µM] | 7% | x | x | 3% | -3%
Cc1ccc(C)c(NC(=O)CN(C)C(=O)CSCc2c(C)noc2C)c1 | x | 4% | 13% | -13% | x | x | 3% | 14%
COc1ccc(/C=N/NS(C)(=O)=O)c(OC)c1 | -8% | u | u | -12% | -2% | -3.2% | 14% | 13%
COc1cccc(C(=O)OCn2nnc3ccccc3c2=O)c1OC | -21%&-1% | x | x | -23% | x | x | 0% | -5%
CCn1c(-c2nn(-c3ccc(C)cc3)ccc2=O)n[nH]c1=S | 2% | 17% | 5% | 0% | x | x | 0% | 4%
CCn1c(O)c(C=NCCN2CCOCC2)sc1=S | 5% | 6% | 13% | -19% | -4% | -2.0% | 0% | 2%
COc1ccc(NC(=O)Cn2c(=O)cnc3ccccc32)cc1S(=O)(=O)N1CCCCC1 | x | -9% | u | -10% | x | x | x | 2%
COc1ccc(NC(=O)CSc2nc(=O)n(CCN3CCOCC3)c3c2CCC3)cc1 | x | 1% | 0% | -8% | x | x | x | 0%
O=CN/N=C/c1c(O)ccc2ccccc12 | -48% | x | x | -7% | x | x | -1% | -8%
COc1cccc(NC(=O)Nc2nccc(C)n2)c1 | -3% | x | x | 2% | x | x | -2% | -6%
Cn1c(=O)oc2cc(S(=O)(=O)NC(Cc3ccccc3)C(=O)NCc3ccc(F)cc3)ccc21 (stereo unspecified) | x | 0%[46.1 µM] | 12%[46.1 µM] | -14% | 4% | 1.6% | x | x
Cc1cc(C)c(S(=O)(=O)c2ccccc2)c(N(C)C)n1 | -14% | 18% | -2% | -4% | -7% | 6.7% | -7% | 9%
COc1cccc(C(=O)NC2(C(F)(F)F)C(=O)Nc3c2c(=O)[nH]c(=O)n3-c2ccc(C)cc2)c1 (stereo unspecified) | x | 14%[46.1 µM] | -9%[46.1 µM] | 0% | -2% | -2.3% | x | x
COc1cc2c3nnc(-c4ccc(F)cc4)c-3cn(Cc3ccc(F)cc3)c2cc1OC | -1% | x | x | -17% | 8% | -9.2% | 0% | 8%
O=C(Cc1c(O)c2ccccc2[nH]c1=O)OC1CCCCC1 | -43% | 6% | -10% | 13% | -7% | 3.6% | 1% | -1%
Cc1cccn2c(CNCC3OCCc4ccccc43)c(C(=O)N3CCCCC3)nc12 (stereo unspecified) | 5% | -38% | 10µM* | -23% | x | x | 1% | -8%
COC(=O)c1c(NC(=O)CC2Nc3cc(C)c(C)cc3NC2=O)sc(C)c1C (stereo unspecified) | 8% | 12% | 18% | -12% | -1% | 2.6% | 15% | -3%
COc1ccc(NC(=O)CSCc2cc(=O)n3c(C)csc3n2)cc1 | -6% | x | x | 0% | x | x | 0% | 8%
O=c1cc[nH]c2cccc(Cc3ccccc3)c12 | -40% | 1% | 4% | -9% | -3% | 1.2% | -13% | -17%
CC(=O)Nc1nc(COc2ccccc2)cs1 | 2% | 0% | 4% | 0% | -8% | 3.5% | -1% | 5%
COc1ccc2nc(SC)cc(C)c2c1 | -3% | u | -28% | 10% | x | x | -1% | -2%

Carrying on:
smiles | NS1 inh | Lassa entry inh | MARV entry inh | StopGo reporter | Cruzain inh noDet | Cruzain Triton | SARS PLP yeast | RE007 growth inh
Cc1nc2nc(-c3cccs3)cn2nc1C | -14% | 10µM* | u | 1% | -6% | -5.3% | -1% | u
CCOC(=O)c1c(NC(C)=O)c2c3c(sc2n1Cc1cc(C)ccc1C)CCCC3 | x | x | -18%[46.1 µM] | -17% | -9% | 0.5% | x | x
Cc1nc2c(-c3ccc(F)cc3)cnn2c(N)c1-c1ccc(F)cc1 | 2% | -23%[46.1 µM] | 5µM* | u | x | x | 0% | -8%
CC(=O)c1ccc(Nc2c([N+](=O)[O-])ccc3nonc23)cc1 | 6% | 0%[46.1 µM] | 9%[46.1 µM] | -25% | x | x | -2% | 5%

Screening data from PubChem BioAssay.
